# Mtb H37Rv: M. tuberculosis H37Rv growth inhibitors, H37Rv strain (AID 1626). inhibition, % at 10 µM, or IC50 in µM where a hit was titrated. 0.95% of 220,000 active. M. tuberculosis H37Rv growth inhibition; higher % means a stronger effect;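 active = confirmed in a dose series; inconclusive = inhibition above 80% but not taken into the dose series; inactive = below 80% or under 30% at every dose of the series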;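 note: bacteria incubated seven days before Alamar blue readout; 0% = bacteria only wells and 100% = bacteria with antibiotic wells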
# Mtb bLac sens: beta-lactam sensitization of Mtb H37Rv; M. tuberculosis H37Rv growth with meropenem, percent inhibition; hits of this screen are not shown here; 0.27% of 330,000 active; inhibition, % at 25 µM; AID 434955;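 active = about 74% or more and at least 40 points above the plate without the antibiotic, then above 30% in a dose series; inconclusive = first-round hits that could not be retested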;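 note: growth measured after seven days incubation then overnight dye step; 0% = bacteria only wells and 100% = bacteria with antibiotic; twin plates without the antibiotic show which effects depend on it; some results filed as inactive read as strong as hits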
# Arbovirus anti: antivirals against arbovirus infection; inhibition, % at 10 µM; arbovirus infection cell-based antiviral screen; 0.37% of 200,000 active;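 active = inhibition from about 30%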;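 note: bluetongue infection of BSR cells; cell survival read as ATP light after 72 h; 0% = infected wells without compound and 100% = uninfected wells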
# RecA splice inh: Mtb RecA intein splicing inhibition. P9WHJ3. cell-free RecA intein splicing, fluorescence. inhibition, %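 (about 9 µM by stock and volumes)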. 0.75% of 290,000 active. AID 2221; in the data active = inhibition above about 30%; inconclusive = no clear call, values can overlap the other calls;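 note: 0% = vehicle wells and 100% = reference inhibitor control wells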
# Target sequence (P9WHJ3 whole entry, looked up, canonical isoform): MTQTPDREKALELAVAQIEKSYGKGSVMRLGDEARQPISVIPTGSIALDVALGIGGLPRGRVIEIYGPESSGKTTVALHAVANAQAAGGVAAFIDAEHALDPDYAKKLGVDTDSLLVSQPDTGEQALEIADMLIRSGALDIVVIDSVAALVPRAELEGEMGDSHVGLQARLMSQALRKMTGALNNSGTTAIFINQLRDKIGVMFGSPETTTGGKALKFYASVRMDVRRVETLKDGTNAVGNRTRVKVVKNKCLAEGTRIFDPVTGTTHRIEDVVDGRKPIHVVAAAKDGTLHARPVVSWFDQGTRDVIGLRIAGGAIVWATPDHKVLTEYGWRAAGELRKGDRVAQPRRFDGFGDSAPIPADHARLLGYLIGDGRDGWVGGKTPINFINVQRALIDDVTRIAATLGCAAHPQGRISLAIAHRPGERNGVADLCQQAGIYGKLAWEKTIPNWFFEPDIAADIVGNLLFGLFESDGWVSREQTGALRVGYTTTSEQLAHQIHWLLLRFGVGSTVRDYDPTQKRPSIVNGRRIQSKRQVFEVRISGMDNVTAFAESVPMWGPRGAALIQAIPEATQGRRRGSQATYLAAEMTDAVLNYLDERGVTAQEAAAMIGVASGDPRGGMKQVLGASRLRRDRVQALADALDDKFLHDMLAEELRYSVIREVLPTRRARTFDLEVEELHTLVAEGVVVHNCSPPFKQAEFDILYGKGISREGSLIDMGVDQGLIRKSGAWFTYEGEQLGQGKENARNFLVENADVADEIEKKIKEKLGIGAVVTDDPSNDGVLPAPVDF
# YopH PTP inh: YopH (Yersinia) phosphatase inhibition | fluorescence Ex485/Em525 | 0.16% of 140,000 active | inhibition, %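 (about 10 µM by stock and volumes)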;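 active = inhibition of 50% or more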;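 note: controls were vehicle for no effect and minimum signal wells for full effect; inactives centre near -20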
# Arbovirus anti repeat: further read-out of Arbovirus anti, marked with its call; inhibition, %; measured here: 10K subset replicate screen; many hits read low in the repeat;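 first of two repeat runs on a subset; 0% = infected and 100% = uninfected wells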
# Numbers without * were called inactive; u = inconclusive; x = not tested or not shown. Not all compounds are listed (hit frequency here may not be typical).
SMILES,Mtb H37Rv,Mtb bLac sens,Arbovirus anti,RecA splice inh,YopH PTP inh,others
CC(C)C[C@H](NC(=O)C1CC(=O)N(c2ccc3c(c2)OCCO3)C1)C(=O)NC1CCCC1 (some centres undefined),x,2,x,1.0,x,
O=C(NN=C1c2ccccc2-c2ccccc21)c1ccccc1Br,43%,99,-8,-3.0,-28,
N#CCC(=O)NN=C1CCCCCCCCCCC1,11%,69,4,2.1,-16,
Cn1c(=O)n(C)c2cc(NS(=O)(=O)c3ccccc3)ccc21,x,-7,x,-4.3,x,
CCOc1ccc(NC(=S)N2CCC(c3nc4ccccc4[nH]3)CC2)cc1,2%,4,1,0.3,x,
COc1cccc(C2NC(=O)NC(C)=C2C(=O)OCC2CCCO2)c1 (centres undefined),-7%,-1,0,-3.2,x,
COc1ccccc1N1CCN(C2CCCCC2NS(=O)(=O)c2ccccc2)CC1 (centres undefined),x,4,x,9.6,x,
CC1CCCCN1Cc1ccc(Cl)nc1 (centres undefined),4%,0,-1,-1.2,x,
COCC(C)n1c(C)cc(C(=O)Cn2c(=O)oc3ccccc32)c1C (centres undefined),x,3,3,0.3,-17,
COc1ccc(NC(=O)CSc2nc(=O)n(CCN3CCOCC3)c3c2CCC3)c(OC)c1,x,-13,x,-2.6,x,
COc1ccc(S(=O)(=O)NC2CCCCCC2)cc1C(N)=O,x,-5,x,0.5,x,
CC1(C)Cc2c(sc(NC(=O)c3ccc4ncsc4c3)c2C(N)=O)C(C)(C)N1,-5%,-14,6,-0.3,x,
O=C(CSc1nnc(CNC(=O)c2c(F)cccc2F)o1)Nc1ccc2c(c1)OCCO2,x,-13,x,3.2,x,
Cc1ccc(/C=N/Nc2nc(N3CCOCC3)nc(N3CCOCC3)n2)o1,-4%,5,14,-4.6,x,
Cc1cc(C)nc(NC(=O)c2cccs2)n1,-9%,-14,x,3.5,x,
Cc1nc2c(nnn2Cc2c(Cl)cccc2Cl)c(=O)[nH]1,x,-2,x,-1.7,x,
Cc1cc(=O)cc(C)n1-c1ccccc1Br,x,-10,x,-1.2,x,
CC(C)(C)c1ccc(N2C(=O)CC(C/C=C/c3ccccc3)C2=O)cc1 (centres undefined),-9%,-2,x,-8.1,x,
CC(=O)N1CCc2ccc(S(=O)(=O)N3CC(C)OC(C)C3)cc21 (centres undefined),2%,-4,5,-8.7,-21,
COc1ccc(Cl)cc1NC(=O)C/C(C)=N/NC(=O)c1ccccc1[N+](=O)[O-],x,4,x,2.5,x,
CCOc1cc(C2NC(=O)c3ccccc3O2)ccc1OC (centres undefined),x,-4,x,-0.2,x,
Cc1nnc(SCCC#N)n(CCC#N)c1=O,9%,11,0,3.3,-116,
COc1ccc(-n2c(=S)[nH]c3sc(-c4ccccc4)cc3c2=O)c(OC)c1,-6%,45,x,0.4,x,
CCOc1ccc(/C=C2\CCCc3c2nc2ccccc2c3C(=O)O)cc1OC,x,-15,x,-69,x,
CCOc1ccc(S(=O)(=O)N2CCCC(C(=O)NCc3ccccn3)C2)cc1Cl (centres undefined),x,-8,x,-0.5,x,
Cc1cc(=O)oc2c(C)c(OC3CCCCC3=O)ccc12 (centres undefined),x,-5,x,-0.6,x,
Nc1nnc(SCC(=O)OCC(=O)Nc2ccccc2F)s1,-4%,-3,-4,-1.3,x,
Cc1c2cnn(CC(=O)Nc3c(F)c(F)cc(F)c3F)c(=O)c2c(C)n1Cc1ccccc1F,1%,-2,-6,1.3,x,
CCOc1ccc(S(=O)(=O)N2CCN(C)CC2)cc1NC(=O)c1ccccc1F,x,7,x,0.8,x,
COc1ccc(OC)c(NC(=O)c2ccno2)c1,-3%,12,4,5.8,x,
O=C(NCc1nnc(SCC(=O)N2CCCC2)o1)c1ccco1,0%,-1,4,-4.1,x,
CSc1nc2c(c(=O)[nH]1)C(c1ccc(F)cc1)CC(=O)N2 (centres undefined),0%,1,6,x,x,
O=C(Cn1ccc2ccccc2c1=O)N1CCN(Cc2ccc3c(c2)OCO3)CC1,-14%,-3,-4,-0.6,-40,
Cc1ccc2c(CC(=O)Nc3nc(C)cs3)coc2c1,5%,3,10,0.0,-25,Arbovirus anti repeat=5
COc1ccc(-c2cc(C(=O)Nc3cccc(O)c3)no2)cc1,x,17,x,-0.8,x,
CC12CCCCN1CCCc1c2[nH]c2ccccc12 (centres undefined),1%,14,-1,3.9,-40,
COc1cccc(C(=O)Oc2cc(C)[nH]c(=O)c2[N+](=O)[O-])c1OC,x,3,-1,-2.1,-17,
CC12CCC(C(=O)O)(c3nc(C#N)c(C#N)nc31)C2(C)C (centres undefined),2%,19,3,9.5,3,
Cc1nn2cc(-c3ccccc3)nc2s1,-4%,-3,-2,x,-23,Arbovirus anti repeat=-4
COc1cccc(NC(=O)CSc2nccn2-c2cccc(OC)c2)c1,-5%,-3,-3,8.0,-37,
Cc1ccc(S(=O)(=O)N2CCC(C(=O)OCC(=O)N3CCCC3=O)CC2)cc1C,x,-4,x,-0.5,x,
CCOC(=O)c1[nH]c2ccc(OC)cc2c1NC(=O)CCN1CCC(C)CC1,6%,-16,6,0.0,5,
COc1ccc(N=Nc2nc(-c3ccccc3)c(-c3ccccc3)[nH]2)cc1,u,92,4,5.3,-28,
COCCCN1CC(=O)N2C(c3cccc(OC)c3OC)c3[nH]c4ccccc4c3C[C@H]2C1=O (some centres undefined),x,2,x,4.6,x,
CN1C(=O)C(=Cc2sc(=O)n(-c3ccccc3)c2N2CCCCC2)C(=O)N(C)C1=O,-7%,x,x,-0.5,x,
Cc1cc(C(=O)NCC2COc3ccccc3O2)c2ccccc2n1 (centres undefined),-7%,-9,-4,1.2,x,
CN(Cc1nc(-c2cccnc2)no1)S(=O)(=O)c1ccccc1,5%,-11,1,-4.4,-10,
O=C(OCc1ccccc1)/C(=C/c1ccccc1Cl)NC(=O)c1ccco1,x,-4,x,5.9,x,
CC(C)C(=O)N1CCN(c2ccc(NC(=O)c3ccc4c(c3)OCCO4)cc2Cl)CC1,>100µM*,43,3,4.5,-1,
CCCCC(CCCCl)C(=O)Nc1ccccc1 (centres undefined),1%,10,-1,-0.1,x,

# Next part.
SMILES,Mtb H37Rv,Mtb bLac sens,Arbovirus anti,RecA splice inh,YopH PTP inh,others
CN(C)c1ccc(/C=[N+](\[O-])C(C)(C)/C=N/O)cc1,5%,6,11,2.6,-4,
COc1ccc(-c2nc(CN3CCC(C(=O)NC4CCCC4)CC3)c(C)o2)cc1OC,x,1,x,-2.3,x,
O=c1ccc2ccc(OCCOc3cccc(Cl)c3)cc2o1,x,4,x,2.6,x,
O=C(NCc1ccco1)/C(=C/c1cccnc1)NC(=O)c1cccc(Br)c1,-5%,2,-3,1.9,-36,
FC(F)(F)c1cccc(N2CCN(C(=S)NC3CCCC3)CC2)c1,3%,-4,-3,5.9,-1,
CC(C)NC(=O)c1ccc(N2CC3CC(C2)c2cccc(=O)n2C3)c([N+](=O)[O-])c1 (centres undefined),-1%,3,2,-0.6,x,
CCN(CC)C(=O)Cn1cc(S(=O)(=O)CC(=O)Nc2cc(C)on2)c2ccccc21,x,-4,x,1.4,x,
CCOc1c(P(=S)(N(C)C)N(C)C)c(C)nn1-c1ccccc1,2%,-7,-1,x,-196,
N=c1c(S(=O)(=O)c2ccc(Br)cc2)cc2c(=O)n3ccccc3nc2n1C1CCCC1,x,0,x,-4.5,x,
COC(=O)c1ccccc1OCCN1CCCCCC1,2%,1,2,-1.9,x,
CCCS(=O)(=O)NCc1ccc2c(c1)cc(C)n2C,5%,1,-1,3.8,-32,
Cc1ccc(S(=O)(=O)N/N=C/C(C)(C)CO)cc1,-1%,6,2,2.2,-34,
Brc1ccc(C[n+]2ccccc2)cc1,x,4,x,-3.9,x,
CC1OC(Nc2cccc3ccccc23)C(O)C(O)C1O (centres undefined),-6%,92,-14,46*,8,
CCCCN(C)C(=O)c1cn(CC)c2nc(C)ccc2c1=O,2%,-13,4,-9.7,-3,
Cc1ccc(-c2nc3sc(C(N)=O)c(N)c3c3c2CCCC3)cc1,5%,u,-5,-7.6,-14,
CCOC(=O)C(=O)NC(C)CCc1ccccc1 (centres undefined),-2%,4,-4,0.8,-43,
COc1ccccc1C(=O)NCC(=O)N/N=C/c1cc(Br)ccc1OC(=O)/C=C\c1ccco1,22%,13,-19,-1.8,-16,
COCc1cc(=O)oc2cc(NS(=O)(=O)c3ccc(C)cc3)ccc12,4%,0,x,-13,x,
O=C(N/N=C/c1cccc(F)c1)c1csc2c1CCCC2,4%,-7,-5,5.4,-51,
CN(C)c1ccc(/C=N/NC(=O)c2ccc(CN3CCOCC3)cc2)cc1Br,-8%,-6,3,2.7,x,
COc1ccc(CCNC(=S)Nc2cc(C)cc(C)c2)cc1,16%,2,5,1.9,2,
Cc1cccc(-c2noc(CN(C(=O)CCc3ccccc3)C(C)C)n2)c1,1%,3,5,4.9,-41,
Cc1cc(C)cc(Oc2coc3cc(OC(=O)c4cccs4)ccc3c2=O)c1,-2%,7,-1,34*,-26,
CS(=O)(=O)N1CCC(c2noc(-c3ccc(C(F)(F)F)cc3)n2)CC1,-18%,-6,10,-2.1,-23,
O=C(N/C(=C/c1ccco1)C(=O)N1CCCCC1)c1cccs1,5%,30,0,x,-33,
COc1ccc(-n2nc3c(c2NC(=O)C2CC2)CS(=O)C3)cc1 (centres undefined),x,-3,2,0.1,20,
CCn1c(C(=O)N2CCC(C(=O)N3CCC4(CC3)OCCO4)CC2)cc2sccc21,-12%,-4,5,x,-19,
Nc1ncnc2c1nc(Br)n2[C@@H]1O[C@@H]2COP(=O)(O)O[C@H]2[C@H]1O,-3%,-1,x,-1.6,x,
Cc1cc(Cl)ccc1OCCCC(=O)NCCc1nnc2ccccn12,x,2,x,-0.7,x,
CCN(CC)CCNC(=O)C(=O)Nc1cc2c3c(c1)CCC(=O)N3CCC2,x,-9,x,5.7,x,
CO/N=C(\CS(=O)(=O)Cc1ccc(OC)cc1)c1ccc(Cl)cc1,7%,4,-6,0.0,-39,
CCOC(=O)C1=C(C)NC2=C(C(=O)CCC2)C1c1cn(Cc2ccc(Cl)cc2Cl)nc1-c1ccccc1 (centres undefined),x,3,-15,-20,-23,
Cc1ccccc1C(=O)N1CCN(c2ccc(NC(=O)CSc3ccc(Cl)cc3)cc2)CC1,2%,56,-26,2.2,27,
Cc1cc(=O)nc2c3ccccc3n(CC(=O)NCCCN3CCCCC3C)n12 (centres undefined),x,-1,x,-0.8,x,
CCOc1ccc2oc(-c3ccccc3)c(C(=O)N3CCN(CCO)CC3)c2c1,-4%,x,-10,x,-24,
COc1ccc(Cc2n[nH]c(=S)n2C)cc1Br,-2%,-2,8,0.5,x,
CCCCn1c(N)c(N(CCOC)C(=O)c2cccc(-n3cnnn3)c2)c(=O)[nH]c1=O,x,2,x,-3.3,x,
COc1ccc(C(=O)O)cc1S(=O)(=O)N(CCc1ccccc1)Cc1ccccc1,-14%,0,x,3.5,x,
O=C1NC(=O)C(c2cn(-c3ccccc3)nc2-c2ccc(F)cc2)N1 (centres undefined),-1%,-1,-1,x,-12,
O=C(COc1ccc2c(-c3ccccc3)cc(=O)oc2c1)NCCCN1CCOCC1,x,1,x,-1.3,x,
CCCc1nc(SCC(=O)c2ccccc2)c2c(=O)n(C)c(=O)n(C)c2n1,8%,0,-4,0.6,-7,
COc1ccc(C(=O)NCC(=O)N/N=C(C)\C=C\c2ccccc2)cc1OC,0%,1,-3,x,x,
CC(C)(NO)/C(=N\O)c1ccccc1,-2%,9,5,-2.5,3,
Cc1ccc(S(=O)(=O)N2CCOC2CNC(=O)C(=O)NCCN2CCOCC2)cc1 (centres undefined),x,-7,x,2.6,x,
CCCn1c(C(=O)c2ccc(OC)cc2)nc2ccccc21,-3%,22,-9,4.6,x,
CCC(=O)Nc1cccc(NC(=O)CSc2nc3c(c(=O)n(C)c(=O)n3C)n2C)c1,x,-3,x,-0.6,x,
CCOC(=O)c1c(NCC(C)C)c2ccccc2[nH]c1=O,-1%,7,2,-3.3,-6,

# Quoted at random: six records from the list
SMILES,Mtb H37Rv,Mtb bLac sens,Arbovirus anti,RecA splice inh,YopH PTP inh,others
CC(C)C[C@H](NC(=O)C1CC(=O)N(c2ccc3c(c2)OCCO3)C1)C(=O)NC1CCCC1 (some centres undefined),x,2,x,1.0,x,
COc1cccc(C2NC(=O)NC(C)=C2C(=O)OCC2CCCO2)c1 (centres undefined),-7%,-1,0,-3.2,x,
O=C(OCc1ccccc1)/C(=C/c1ccccc1Cl)NC(=O)c1ccco1,x,-4,x,5.9,x,
CC(C)(C)c1ccc(N2C(=O)CC(C/C=C/c3ccccc3)C2=O)cc1 (centres undefined),-9%,-2,x,-8.1,x,
COCC(C)n1c(C)cc(C(=O)Cn2c(=O)oc3ccccc32)c1C (centres undefined),x,3,3,0.3,-17,
CCn1c(C(=O)N2CCC(C(=O)N3CCC4(CC3)OCCO4)CC2)cc2sccc21,-12%,-4,5,x,-19,

# Screening results (PubChem)
